High-throughput results as filed in PubChem.
hNpr1 antagonist: Natriuretic polypeptide receptor (hNpr1) antagonism - Primary qHTS. Atrial natriuretic peptide receptor 1 (Homo sapiens), P16066. HEK293 hNpr1 GloSensor cGMP, ANP-stimulated luminescence. Potency, µM (highest dose often 46.3 µM), for the others: top-dose activity change, negative = inhibition, usual class: inhibitors. 76,000 tested, 1.6% active. AID 1347048, 2019; active = well fitted inhibition curve with a large enough effect; inconclusive = small, poorly fitted or top-dose-only effect; inactive = no such curve, though single readings can be large or run the other way;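 note: nearly all actives have a fitted effect of over 60% in size; nearly all hits also lower the signal before the agonist is added; a reference antagonist and vehicle were the controls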
Target sequence (P16066 whole entry, looked up): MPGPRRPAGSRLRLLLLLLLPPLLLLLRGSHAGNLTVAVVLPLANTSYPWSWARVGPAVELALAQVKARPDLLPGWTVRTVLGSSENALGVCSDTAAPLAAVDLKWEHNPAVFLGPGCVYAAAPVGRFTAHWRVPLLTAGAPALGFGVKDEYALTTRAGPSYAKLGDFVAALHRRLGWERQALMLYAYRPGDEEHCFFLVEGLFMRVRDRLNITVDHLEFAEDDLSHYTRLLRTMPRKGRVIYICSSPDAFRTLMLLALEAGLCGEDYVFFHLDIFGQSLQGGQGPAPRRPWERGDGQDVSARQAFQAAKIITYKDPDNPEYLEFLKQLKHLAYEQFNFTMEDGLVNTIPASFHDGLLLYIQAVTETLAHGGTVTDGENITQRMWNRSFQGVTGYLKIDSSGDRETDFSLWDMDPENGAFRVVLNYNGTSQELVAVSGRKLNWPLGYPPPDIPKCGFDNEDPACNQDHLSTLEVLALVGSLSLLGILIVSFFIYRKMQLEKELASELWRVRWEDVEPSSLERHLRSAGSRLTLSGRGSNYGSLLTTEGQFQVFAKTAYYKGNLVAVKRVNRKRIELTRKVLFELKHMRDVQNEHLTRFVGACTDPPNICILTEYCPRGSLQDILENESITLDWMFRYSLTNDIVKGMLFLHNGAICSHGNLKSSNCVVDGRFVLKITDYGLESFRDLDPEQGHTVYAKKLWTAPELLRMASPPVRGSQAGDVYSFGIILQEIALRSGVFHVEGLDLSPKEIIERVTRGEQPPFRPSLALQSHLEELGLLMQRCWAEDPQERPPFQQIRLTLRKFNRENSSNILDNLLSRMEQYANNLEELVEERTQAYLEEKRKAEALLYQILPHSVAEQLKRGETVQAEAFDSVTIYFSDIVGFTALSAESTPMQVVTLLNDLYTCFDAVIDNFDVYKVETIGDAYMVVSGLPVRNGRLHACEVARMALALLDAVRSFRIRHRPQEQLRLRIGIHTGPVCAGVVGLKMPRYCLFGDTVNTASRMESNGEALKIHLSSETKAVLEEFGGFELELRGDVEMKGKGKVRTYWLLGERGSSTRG
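HEK293 cells stably expressing human Npr1 and cGMP GloSensor pGS-40F, loaded 2 h with 2% GloSensor reagent, given compound 30 min at room temperature. Luminescence read before and 20 min after 0.1 nM hNppA.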
Numbers without * were called inactive; u = inconclusive; [ ] = remark or other dose. % is set by controls: 0 for no effect and ±100 for the full control effect; potency is the fitted concentration of half-maximal effect.

SMILES | hNpr1 antagonist
CCC1Oc2ccc(NC(=O)c3ccc([N+](=O)[O-])cc3)cc2CN(Cc2ccc(F)cc2)C1=O (centres undefined) | -11%
C[S+](=O)([O-])c1ccc(-c2cc(-c3cccnc3)c3cncn3c2)cc1 | -15%[70.6 µM]
Cc1ccc(CNC(=O)Cn2c(=O)c(-c3noc(C)n3)c3n(c2=O)CCCCC3)cc1 | -4%
NC(=O)c1cccc(-c2n[nH]c3c2CC(=O)N(CC2CCOCC2)C3)c1 | -2%[70.6 µM]
COc1ccccc1N1CCN(C(=O)c2cc3n(n2)CC(c2ccc(Cl)cc2)OC3)CC1 (centres undefined) | u
O=C(NC1CCN(c2cc(-c3ccc(Cl)cc3)[nH]n2)C1)c1ccc2c(c1)OCO2 (centres undefined) | -29%
CC1Oc2ccc(NC(=O)c3cccs3)cc2CN(Cc2ccc(F)cc2)C1=O (centres undefined) | -12%
Cc1cc(F)cc(CN2CCc3nc(C(=O)Nc4ccccc4)oc3CC2)c1 | 13µM*
COc1ccc(-c2noc(CC3CCN(C(=O)CCc4ccccc4)CC3)n2)cc1 | 13µM*
Cc1nn(-c2ccc(F)cc2)c(C)c1[C@@H]1C=C[C@@H](NS(=O)(=O)c2cccs2)C1 | -13%[70.6 µM]
CCNC(=O)N[C@H]1CC[C@]2(C)CCC([C@H](C)C(=O)NC3CC3)[C@H](O)[C@H]2[C@@H]1C (some centres undefined) | 0%[70.6 µM]
CC(C)(C)CC(=O)N1CC2CC(C1)[C@H]1CCCC(=O)N1C2 (some centres undefined) | 1%
CCC1=C(C(=O)OC)C(c2ccc(OC)cc2OC)N2C(CC(=O)NC3CC3)=CSC2=N1 (centres undefined) | -2%
CCS(=O)(=O)N1CCCC(C(=O)NCc2ccncc2)CCNC(=O)CC1 (centres undefined) | -3%
CC(C)NC(=O)N1CCCC1c1noc(CCC(=O)NCCC2CCN(C(C)C)CC2)n1 (centres undefined) | 3%
Cc1ccccc1C(=O)NC(C(=O)NCC(C)C)C1CCN(C(=O)CC(C)C)CC1 (centres undefined) | -2%
O=C(NCCc1cnc[nH]1)[C@@H]1C[C@H]2C(=O)NCCCCCCN(S(=O)(=O)c3cccs3)[C@H]2C1 | -1%
O=C(CCCn1ccnc1)N1CCC2(CCC(=O)N(Cc3ccncc3)C2)CC1 | 5%
Cc1ccc(C2Cn3nnc(-c4nc(-c5ccc6c(c5)OCO6)no4)c3CO2)c(C)c1 (centres undefined) | -1%
CCn1cc(C(=O)N2CCCC(CCc3cccc(F)c3)C2)cn1 (centres undefined) | -1%
CCOCC(=O)N1CCC(N2CC(OCC3CC3)C23CCCCC3)CC1 (centres undefined) | 1%
c1ccc(-c2cnc([C@@H]3COCCN3C3CCC3)[nH]2)cc1 | -1%[70.6 µM]
Cc1ccc([C@@H]2CN(C(=O)c3sccc3Cl)C[C@H]2N(C)C)cc1 | -11%
CCN(CC)C(=O)C1Cn2cccc2C(=O)N1C (centres undefined) | -9%
Cn1nccc1C(=O)N1CCNc2cnc(Nc3ccccc3)nc2C1 | u
Cc1cn2nc(C(=O)N3CCOCC3)cc2c(N(C)Cc2ccccc2)n1 | 16%
O=[N+]([O-])c1cccc(-c2noc([C@@H]3Cc4nc[nH]c4CN3CC3CCCCC3)n2)c1 | -14%[70.6 µM]
O=C(c1ccc(F)cc1)N1CCC2(CC1)CN(Cc1ccccc1)CC2CO (centres undefined) | -17%
Cc1nn2c(c1-c1ccccc1-c1ccccc1)N(Cc1ccc(OCC(=O)O)cc1)CCC2 | -25%
CN(C(=O)c1ccccc1Cl)C1CCCc2ccccc21 (centres undefined) | -1%[70.6 µM]
COc1ccc(-c2cc(N3CCC(NC(=O)c4ccccc4Cl)CC3)n[nH]2)cc1 | -2%
CC(=O)c1c(C)nn(C(C)CC(=O)N2C[C@H]3CC=CC[C@H]3C2)c1C (some centres undefined) | 1%
COc1ccc(NC(=O)N2CC(C(=O)N(C)C)C3(CCOCC3)C2)c(OC)c1 (centres undefined) | -6%
Cc1ccc(C)c(S(=O)(=O)NCCn2c(C)cnc2C2CCC2)c1 | 3%
c1ccc(-c2nnc3ccc(NC4CCC4)nn23)nc1 | 1%[70.6 µM]
CN(Cc1ccccc1)C(=O)c1cc(-c2ccncc2)cn1C | -21%
CCn1ccc2sc(C)c(C(=O)N3CCC(Cc4ccccc4)CC3)c2c1=O | -10%
CCOc1ccccc1CNC(=O)C1CCN(c2cc(C(F)(F)F)nc(C)n2)CC1 | -21%
O=C(C1CCCN(C2CCN(Cc3ccc4c(c3)OCO4)CC2)C1)N1CCOCC1 (centres undefined) | -9%
O=C1NC(C(=O)NCCc2ccccc2)Cn2cccc21 (centres undefined) | -1%
O=C(NC1CCCN(c2cc(-c3ccc(F)cc3)[nH]n2)C1)c1cccc(F)c1 (centres undefined) | -9%
O=C(O)C[C@@H]1CCN(C(=O)C2CCCC2)C[C@@H]1CCN1CCCCC1 | 1%[70.6 µM]
COc1ccc(CNC(=O)CN2C(=O)NC(c3ccc(Cl)cc3)C3=C2COC3=O)cc1 (centres undefined) | -16%
O=C(Nc1ccccc1)N1CCC2(CC1)CC(Cc1ccccc1)=NO2 | 1%
CC1Oc2ccc(NC(=O)c3ccccc3Cl)cc2CN(Cc2ccc(F)cc2)C1=O (centres undefined) | -16%
CC1(CNC(=O)c2ccccc2Cl)CCOCC1 | 4%
Cc1cc(F)ccc1NC(=O)CN1C(=O)NC2(CCCCC2)C1=O | 3%
COc1cc(CNC(=O)C2CCCN(c3cnn(C)c(=O)c3)C2)cc(OC)c1 (centres undefined) | -11%
Cc1sc(NC(=O)C(C)C)c(C(=O)N2CCc3c(nc[nH]c3=O)C2)c1C | 5%
CCC(c1cccnc1)N(C)C(=O)C1CCN(C(=O)C2CCCC2)CC1 (centres undefined) | 6%
CNC(=O)[C@@H]1C[C@H](n2cc(C(C)(C)NC(=O)c3cc(F)ccc3C)nn2)CN1 | -2%
Cc1ccccc1-n1nc(C)c(CCC(=O)N(C)C(C)C)c1Oc1ccccc1F | -19%
O=S1(=O)CCC(n2nc(-c3ccncc3)nc2CCCn2cccn2)C1 (centres undefined) | 0%
COc1ccc(N2CC(C(=O)NCC(F)F)NC2=O)cc1 (centres undefined) | -11%[70.6 µM]
C#CCN(Cc1nc(-c2ccccc2OCC)oc1C)C1CCCCC1 | 0%
COc1cccc(CCC(=O)N2CCC(Cc3nc(-c4cccc(OC)c4)no3)CC2)c1 | 16µM*
Cc1noc2c(NC3CCN(C)CC3)cc(-c3cccnc3)nc12 | -1%[70.6 µM]
O=C(CC1CCCN(c2cnn(CC3CC3)c(=O)c2)C1)N1CCSCC1 (centres undefined) | -14%
CC(=O)NC1(C)CCN(Cc2cccc(-c3ccc(C(=O)c4ccccc4)cc3)c2)C1 (centres undefined) | u
O=C(c1ccc(F)cc1)N1CCC2(CC1)OCC(C(=O)N1CCOCC1)N2C(=O)c1ccccc1 (centres undefined) | 4%

Filtered by structure: the entries above with a COOH group
SMILES | hNpr1 antagonist
Cc1nn2c(c1-c1ccccc1-c1ccccc1)N(Cc1ccc(OCC(=O)O)cc1)CCC2 | -25%
O=C(O)C[C@@H]1CCN(C(=O)C2CCCC2)C[C@@H]1CCN1CCCCC1 | 1%[70.6 µM]

Other results.
SMILES | hNpr1 antagonist
CC(C)CC(=O)N1CCCCCNC(=O)CC1c1ccccc1 (centres undefined) | 2%
COC1C(=O)N(CC2CC2)C12CCN(C(=O)C1CC1)CC2 (centres undefined) | 0%
COC(=O)C1=C(C)N=C2SC=C(CC(=O)NCc3ccc(F)cc3)N2C1c1cccc(OC)c1 (centres undefined) | -8%
COc1ccc(NC(C)=O)cc1NC(=O)Cn1nc2c(cc1=O)CCCCC2 | -17%
CC(C)c1noc(-c2cn(C3CCN(C(=O)c4ccccc4)CC3)nn2)n1 | 0%
CCNc1cc(N2CCC(CCC(=O)NC3CCCC3)CC2)ncn1 | -3%
CC(C)CNC(=O)N1CCCCCCNC(=O)[C@@H]2CCC[C@@H]21 | -10%
COc1ccc(C(=O)N[C@@H]2CCC[C@@H]2C(=O)NCc2ccc(C)o2)cc1 | 2%
O=C1OCC2=C1C(c1cccs1)NC(=O)N2CC(=O)N1CCCCC1 (centres undefined) | -1%
CCc1ccccc1NC(=O)c1cc2c(=O)[nH]c(C)cn2n1 | -5%
CCc1nncn1C1CCN(S(=O)(=O)c2c(C)noc2C)C1 (centres undefined) | -3%
Cc1cccc(C(=O)N2CCc3[nH]nc(C(=O)NCCCc4ccccc4)c3C2)c1 | 0%
Cc1ccc(C(=O)N2CCCC3(CNc4ccccc4[S+](=O)([O-])N3)C2)cc1 (centres undefined) | 6%
CCN1C(=O)COC[C@@H]1C(O)c1ccc(NC(=O)Cc2ccc(OC)cc2)cc1 (some centres undefined) | 1%[70.6 µM]
CC(C)CCN1C[C@@H]2C(=O)N(Cc3ccc4c(c3)OCO4)C(=O)[C@@H]2C1 | -1%
COc1ccc(CN2CC[C@H](c3nnc(-c4ccncc4)o3)C2)cc1 | 1%[70.6 µM]
Cc1cc(C)n(CC(=O)N2CCOCC(CO)C2)c(=O)n1 (centres undefined) | -2%
O=C(c1ccccc1F)N1CCCC(c2nc(C3CCOCC3)no2)C1 (centres undefined) | 8%
C#CCN(C)C(=O)[C@@H]1CCCN1[C@@H](C(=O)NC)c1ccccc1F | 0%[70.6 µM]
CN1CCNc2nc(COc3ccc(Oc4ccccc4)cc3)n(Cc3ccccc3)c2C1=O | -2%
O=C1CCC2(CCN1)CCN(C(=O)C1CCCCC1)CC2 | 11%
O=C1CCCN1CCCN1C(=O)[C@H]2CN(Cc3ccncc3)C[C@H]2C1=O | 6%
CC(C)CNC(=O)c1ccc2c(c1)C1(CCN(C)C1)CN2CC1CC1 (centres undefined) | -1%[70.6 µM]
COc1ccc(O[C@H]2COCCN(S(=O)(=O)c3ccc(Cl)cc3)C2)cc1 | -19%[70.6 µM]
Cc1noc(C)c1-c1cc2c(cc(C)n2C)c(N2CCN(Cc3ccccc3)CC2)n1 | 0%[70.6 µM]
CC(C)C(=O)NCC1Cn2cccc2C(=O)N1Cc1ccccc1 (centres undefined) | 2%
Cc1ncsc1CN1CCC[C@H]1C(=O)N1CCCCCCNC(=O)CC1 | 0%
COc1cccc(CN2CCC3(C2)C(=O)N(C)C(=O)N3C)c1 (centres undefined) | -4%
Cc1cccc(NC(=O)N2CCC(CC(=O)NCc3ccccc3)C2)c1C (centres undefined) | u
CCc1c(C)nc(N)nc1NCc1noc(COC)n1 | 1%
Cc1c(CC(=O)NCC2CC2)c2c(n1Cc1ccccc1F)CCCC2=O | 5%
Cc1ccc(NC(=O)Cn2c(=O)c(-c3noc(C)n3)c3n(c2=O)CCCCC3)c(Cl)c1 | -26%
O=C(c1ccc2c(c1)OCO2)N1CCc2nn(Cc3ccccc3)c(=O)n2CC1 | -1%
O=C(O)c1cc2c(s1)CCN(C(=O)c1ccc(Cl)cc1)C2 | 0%
CCc1nc2c(=O)n(CC(=O)N3CCN(c4ccccc4F)CC3)nc(C)c2s1 | -7%
COc1ccc(NC(=O)c2cnc3c(c2)N(c2ccccc2OC)CCC3)cn1 | -28%[70.6 µM]
Cc1ccc(C(=O)N2CCC3(CC2)CC(N(Cc2ccc(F)cc2)C2CC2)CCO3)cn1 (centres undefined) | 4%
Cc1noc([C@@H]2CN(C(=O)CC(C)C)C[C@H]2CO)n1 | -1%
O=C(C[C@@H]1CCNC[C@@H]1Cc1cc(CN2CCOCC2)on1)N1CCN(c2ccccc2)CC1 | -9%
Cc1cc(CNC(=O)c2cccc(C3CCNC3)c2)ccc1F (centres undefined) | 0%

Some of the entries above, reformatted.
SMILES	hNpr1 antagonist
Cc1noc(C)c1-c1cc2c(cc(C)n2C)c(N2CCN(Cc3ccccc3)CC2)n1	0%[70.6 µM]
CC(C)C(=O)NCC1Cn2cccc2C(=O)N1Cc1ccccc1 (centres undefined)	2%
Cc1ncsc1CN1CCC[C@H]1C(=O)N1CCCCCCNC(=O)CC1	0%
COc1cccc(CN2CCC3(C2)C(=O)N(C)C(=O)N3C)c1 (centres undefined)	-4%
Cc1cccc(NC(=O)N2CCC(CC(=O)NCc3ccccc3)C2)c1C (centres undefined)	u
CCc1c(C)nc(N)nc1NCc1noc(COC)n1	1%

hNpr1 antagonist: entries above that show a hit.
SMILES | hNpr1 antagonist
Cc1cc(F)cc(CN2CCc3nc(C(=O)Nc4ccccc4)oc3CC2)c1 | 13µM*
COc1ccc(-c2noc(CC3CCN(C(=O)CCc4ccccc4)CC3)n2)cc1 | 13µM*
COc1cccc(CCC(=O)N2CCC(Cc3nc(-c4cccc(OC)c4)no3)CC2)c1 | 16µM*

(next part)
SMILES | hNpr1 antagonist
CN(C)c1ccc(C(=O)NC[C@H]2O[C@@H](CO)[C@@H](O)[C@H]2N2CCN(c3ccccc3)CC2)cc1 | -1%
CN(C)S(=O)(=O)N1CCC2(CC1)CC1C(=O)NCCN1C2 (centres undefined) | -2%
O=C(c1cc[nH]c(=O)c1)N1CC(F)(F)C[C@H]1c1nc(C2CC2)no1 | 11%
Fc1ccc(-c2cc(NC3CCCC3)nc3[nH]ccc23)nc1 | -20%
O=C(c1ccco1)N1CCC(C2CCN(Cc3cccc(F)c3F)CC2)C1 (centres undefined) | -3%
O=c1c2c(CO)c(-c3ccc(F)cc3)nn2ccn1Cc1ccc(OC(F)(F)F)cc1 | u
O=C(NCC(=O)N1CCN(c2ccccn2)CC1)c1cc2ccccc2[nH]1 | 6%

An excerpt, so the mix of outcomes need not match the whole.
